RGS16-Gao HTS: modulators of RGS16 binding to Galphao, primary screen, biochemical, human proteins, multiplexed bead flow cytometry; bead-based flow cytometry RGS16-Galphao binding, fluorescence; actives lie on both sides; Regulator of G-protein signaling 16 (Homo sapiens) + Guanine nucleotide-binding protein …; 0.38% of 220,000 active; binding response (% of control), % at 10 µM; AID 1441, 2008;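 active means below 25% or above 175%, edge rows of some plates excepted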;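 further: Galphao activated by GDP with aluminum fluoride before binding; 100% = wells without compound and 0% = beads without RGS; some results beyond the cut were filed as inactive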
Target sequence (O15492 whole entry, looked up): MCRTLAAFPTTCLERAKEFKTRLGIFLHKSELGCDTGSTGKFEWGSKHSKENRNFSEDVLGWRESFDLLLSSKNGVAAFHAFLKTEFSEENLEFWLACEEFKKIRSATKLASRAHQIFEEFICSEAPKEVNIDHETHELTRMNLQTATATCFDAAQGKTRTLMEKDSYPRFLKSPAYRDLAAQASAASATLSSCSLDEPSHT
Target sequence (P09471 whole entry, looked up): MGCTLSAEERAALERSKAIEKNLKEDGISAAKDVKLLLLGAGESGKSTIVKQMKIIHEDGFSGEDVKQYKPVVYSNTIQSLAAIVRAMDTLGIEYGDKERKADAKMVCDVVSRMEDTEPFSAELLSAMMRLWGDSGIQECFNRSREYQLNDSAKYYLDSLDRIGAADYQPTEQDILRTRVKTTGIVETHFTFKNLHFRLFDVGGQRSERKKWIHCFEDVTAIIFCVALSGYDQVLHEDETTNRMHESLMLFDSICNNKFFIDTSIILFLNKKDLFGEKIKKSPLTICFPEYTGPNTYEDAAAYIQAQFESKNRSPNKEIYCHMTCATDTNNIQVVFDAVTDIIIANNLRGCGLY
HSV replic up: enhancers of HSV replication in host cells, fold increase, host cell viability | 0.005% of 220,000 active | AID 1956, 2009 | HSV replication augmentation in cells | maximum fold increase;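 active means peak rise of 1.5-fold or more in the series; inconclusive means self-fluorescent or not available for retest; tested in PC3 cells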;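 further: first round at 10 µM; read as green reporter fluorescence; hits show the peak of a series up to 25 µM; 1 = signal of infected wells without compound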
PKD1 inh: inhibitors of human PKD1 kinase, biochemical, fluorescence polarization; Serine/threonine-protein kinase D1 (Homo sapiens), Q15139; PKD1 kinase fluorescence polarization assay; inhibition, %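 (about 10 µM by stock and volumes)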; 0.056% of 200,000 active; AID 797, 2007;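 active means inhibition of 50% or more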;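 further: controls were vehicle for no effect and a reference inhibitor for full effect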
GALR2 agonist: GALR2 receptor agonists, primary screen, cell-based. Galanin receptor type 2 (Homo sapiens), O43603. GALR2-expressing cells, agonist activation read-out. activation, %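 (tested at 5 µM)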. 0.48% of 140,000 active. AID 803, 2007;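 active means above mean plus 3 SD of all compounds, about 5% in these data, not always enough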;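 further: 0% = vehicle buffer wells and 100% = reference agonist at full effect; tested in CHO reporter cells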
Target sequence (O43603 whole entry, looked up): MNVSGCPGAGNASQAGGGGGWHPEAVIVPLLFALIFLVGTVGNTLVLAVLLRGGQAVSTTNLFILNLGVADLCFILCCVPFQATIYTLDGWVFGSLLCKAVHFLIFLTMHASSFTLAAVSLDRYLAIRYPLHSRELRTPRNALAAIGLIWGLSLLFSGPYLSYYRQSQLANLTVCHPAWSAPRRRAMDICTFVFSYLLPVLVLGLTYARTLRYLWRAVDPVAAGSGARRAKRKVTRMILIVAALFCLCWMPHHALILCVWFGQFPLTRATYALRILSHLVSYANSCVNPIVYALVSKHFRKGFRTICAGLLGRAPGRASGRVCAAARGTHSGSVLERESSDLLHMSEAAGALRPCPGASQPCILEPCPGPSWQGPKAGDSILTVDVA
INS promoter inh: inhibitors of insulin promoter-driven GFP, primary screen, imaging, TRM-6 cells (human fetal islet line), eGFP reporter, cell count. reporter expression induced with tamoxifen. inhibition, % at 2 µM. 0.9% of 130,000 active. AID 1273, 2008;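 active means inhibition above the mean plus 3 SD, with well images judged a real hit on visual review, cut at about 60% in these data, passing the limit was not always enough; inconclusive means inhibition over the cutoff but images rejected on review; inactive means inhibition not above the cutoff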
INS promoter inh cell count: recorded beside INS promoter inh, whose call it bears; normalized cell count, %; measured here: cell count, toxicity; reference of the scale not given here;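 cells exposed to compound for 48 h; stained nuclei by imaging scaled within each plate; lower means fewer cells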
HSV replic up primary fold: recorded beside HSV replic up, whose call it bears; fold increase; compound at 10 µM; measured here: primary screen fold increase 10 uM; tested in PC3 cells;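 GFP signal in the first replicate; 1 = infected wells without compound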
An asterisk follows results filed as active; i = inactive; ? = inconclusive; / = no result given.

SMILES | RGS16-Gao HTS | HSV replic up | HSV replic up primary fold | PKD1 inh | GALR2 agonist | INS promoter inh | INS promoter inh cell count
CCC(=O)Oc1cccc(C(=O)Nc2ccc(-c3nnc(-c4ccco4)o3)cc2)c1 | 102 | i | 0.78 | 2 | 0.2 | -29 | 62
Cc1ccccc1-n1c(=O)cc(N2CCc3ccccc3C2)[nH]c1=O | 101 | i | 1.3 | -19 | -1.8 | 3 | 103
COc1ccc(NC(=O)NC2CC3CCCC(C2)N3Cc2ccccc2)cc1 (stereo not drawn) | 96 | i | 0.79 | -2 | -1.2 | 3 | 141
CC(=O)c1ccc2c(c1)N(C)c1ccccc1S2 | 84 | i | 0.93 | -9 | 1.1 | 44 | 89
O=C1CCCC(NCCCCCCNC2=C([N+](=O)[O-])C(=O)CCC2)=C1[N+](=O)[O-] | 108 | i | 1 | 4 | -3.0 | / | /
Cc1ccc(NC(=O)Cn2c(O)c(N=NC(=O)c3ccncc3)c3ccccc32)cc1 | 104 | i | 0.75 | -6 | / | -40 | 130
COC(=O)c1c(NC(=O)CSc2nnc(C)c(=O)[nH]2)sc(C)c1C | 103 | i | 1.1 | -5 | / | 25 | 90
Cc1[nH]c2ccccc2c1C(=O)C(=O)N1CCCc2ccccc21 | 110 | i | 1 | 16 | -0.7 | / | /
COCCn1c(-c2cccc(Br)c2)nc2c(c(=O)c3ccccc3n2C)c1=O | 100 | i | 0.9 | / | / | / | /
Brc1ccc(/C=C/C=N/Nc2nc3ccccc3s2)cc1 | 103 | i | 1 | 0 | -1.0 | / | /
CC(C)CC(=O)Nc1ccccc1-c1nnn(CC(=O)N2CCOCC2)n1 | 100 | i | 0.78 | -7 | 0.5 | 3 | 65
Cc1noc(C)c1COC(=O)c1ccccc1Sc1ccccc1C#N | 110 | i | 0.95 | -3 | -0.4 | / | /
NC(=O)c1c(NC(NC(=O)c2ccco2)(C(F)(F)F)C(F)(F)F)sc2c1CCCC2 | 97 | i | 0.98 | -3 | -2.4 | -10 | 78
COc1ccc(Nc2nc(N)nc(CSC(=S)N3CCCCC3)n2)cc1 | 111 | i | 0.85 | -7 | / | -8 | 31
Cc1ccc(-c2nnc(Oc3ccc(NC(=O)c4ccccc4)cc3)c3ccccc23)cc1 | 89 | i | 1 | 7 | 1.3 | 30 | 93
NC(=O)CN1CCN(C(=O)Nc2ccccc2)CC1 | 114 | i | 1.3 | 6 | -0.8 | / | /
Cc1ccc(NC(=O)C2CCCN2C(=O)NC2CCCCC2)c(C)c1 (stereo not drawn) | 94 | i | 0.93 | -13 | -2.4 | -39 | 139
CC(C)CC(=O)Nc1ccc(C(=O)NN2C(=O)c3ccccc3C2=O)cc1 | 90 | i | 0.97 | 0 | -3.2 | / | /
CCCC/C=C1\CCc2c([nH]c3ccccc23)C1=O | 87 | i | 0.89 | 1 | / | / | /
CN(C(=O)CSc1nnc(-c2c[nH]c3ccccc23)o1)C1CCS(=O)(=O)C1 (stereo not drawn) | 92 | i | 1 | 0 | / | -36 | 103
O=C(Cn1nc(-c2ccccc2F)ccc1=O)Nc1ccc(S(=O)(=O)N2CCCCCC2)cc1 | 104 | i | 0.92 | -5 | -0.3 | -65 | 125
CC(C)Oc1cccc(C(=O)O)c1 | 101 | i | 1 | -19 | -0.1 | / | /
CS(=O)(=O)N1CCN(c2nc(-c3ccc(F)cc3)cs2)CC1 | 96 | i | 0.89 | -10 | -1.7 | -19 | 40
CN(C)S(=O)(=O)c1ccc(NC(=O)c2cccnc2)cc1 | 109 | i | 1 | 1 | -3.8 | 29 | 160
COc1ccc2nc(NC(C)=O)sc2c1 | 100 | i | 0.92 | -1 | -3.0 | -5 | 101
The results go on.
SMILES | RGS16-Gao HTS | HSV replic up | HSV replic up primary fold | PKD1 inh | GALR2 agonist | INS promoter inh | INS promoter inh cell count
Cc1ccccc1N=C1Nc2ccccc2CS1 | 104 | i | 0.89 | 2 | -0.9 | / | /
O/N=C/c1ccccc1OCc1ccc(Cl)cc1 | 104 | i | 0.76 | 9 | -2.5 | 17 | 140
CCOc1cc(/C=C2/SC(=O)N(CC(=O)N3CCc4ccccc4C3)C2=O)ccc1OCC(=O)O | 101 | i | 0.95 | -11 | -3.0 | 5 | 64
COc1cc(C(=O)Nc2cc(C(F)(F)F)ccc2N2CCOCC2)ccc1O | 9.6* | i | 0.89 | -2 | -1.1 | -492 | 15
Cn1c(CO)cnc1SCc1ccc(F)cc1 | 95 | i | 0.99 | -8 | / | / | /
C/C(=N\NC(=O)c1cccs1)c1cccnc1 | 111 | i | 0.9 | 1 | / | 44 | 148
Clc1ccccc1Cc1noc(CN2CCN(c3cnccn3)CC2)n1 | 102 | i | 0.93 | 0 | / | / | /
O=c1cc(N2CCOCC2)cnn1-c1ccccc1 | 105 | / | / | -4 | -1.1 | 8 | 119
COC(=O)c1c(C)[nH]c(C(=O)OCC(=O)NC(C)(C)C)c1C | 106 | i | 0.95 | -5 | / | / | /
COC(=O)NC1CCC(CC2CCC(NC(=O)OC)CC2)CC1 (stereo not drawn) | 104 | i | 1.1 | -9 | -2.3 | -19 | 76
CC1(C)CC(=O)C/C(=N\NC(=O)c2cccs2)C1 | 84 | i | 0.97 | -5 | -1.6 | -33 | 85
CNC(=O)CSc1nnnn1-c1ccc(C)cc1C | 96 | i | 1 | 3 | -0.8 | 60 | 19
COC(=O)c1ccccc1NC(=O)N1c2ccccc2Sc2ccccc21 | 10 | i | 1.1 | 3 | 0.0 | -38 | 78
O=C1CS/C(=N\NC(=O)c2ccccc2)N1 | 104 | i | 0.95 | / | / | / | /
COC(=O)C1=C(C)N(C)C(=O)NC1c1ccc(O)c(OC)c1 (stereo not drawn) | 101 | i | 0.78 | -5 | -0.6 | / | /
CCOC(=O)c1cnc2sccn2c1=O | 100 | i | 0.81 | -7 | -0.8 | -28 | 109
CC(C)(C)c1nc(SCC(=O)N2CC(=O)Nc3ccccc32)c2ccccc2n1 | 109 | i | 0.88 | -1 | / | -20 | 113
C=CCN1C=C2C(=O)C(C)(OC(=O)CCC(=O)OC)C(=O)C(Br)=C2C=C1c1ccc(OC)cc1 (stereo not drawn) | 93 | i | 1 | / | / | / | /
CCCCC(=O)Nc1ccccc1C(=O)N1CCOCC1 | 107 | i | 0.87 | -2 | -0.7 | 71* | 72*
Cc1ccc[n+](/C(=C\C(=C=[N-])C#N)C(=O)c2ccc(Cl)cc2)c1 | 101 | i | 1 | 6 | / | -21 | 122
COc1cccc(NC(=S)N2CCC(N(C)CC3CCCO3)CC2)c1 (stereo not drawn) | 108 | i | 0.9 | -2 | -0.7 | 11 | 105
COc1c(C)cc(Br)cc1C(=O)Nc1ccc(S(N)(=O)=O)cc1 | 102 | i | 1 | 5 | / | / | /
Cc1ccc2c(Cl)c(C(=O)N/N=C/c3cccn3C)sc2c1 | 109 | i | 0.79 | 3 | -0.2 | / | /
Fc1ccccc1-c1nc(NCc2ccccc2)c2ccccc2n1 | 99 | i | 1.2 | / | / | / | /
Cc1cccc(OCC(=O)N/N=C\c2cccn2C)c1C | 108 | i | 1 | 7 | / | / | /
The results go on:
SMILES | RGS16-Gao HTS | HSV replic up | HSV replic up primary fold | PKD1 inh | GALR2 agonist | INS promoter inh | INS promoter inh cell count
COCc1cc(C(C)=O)ccc1OCC(=O)Nc1ccc(NC(C)=O)cc1 | 100 | i | 0.95 | -5 | / | / | /
O=C(/C=C/c1ccco1)Nc1nc(-c2ccccc2)cs1 | 95 | i | 0.92 | -7 | -1.9 | 34 | 123
COc1ccccc1C(=O)NCC(=O)OCc1csc(-c2ccccc2)n1 | 104 | i | 0.97 | 2 | -0.2 | 13 | 108
CCN(CC)C(=O)NC(c1ccc(C)c(F)c1)C(Cl)(Cl)Cl (stereo not drawn) | 48 | i | 0.97 | -8 | -1.9 | -20 | 107
CCCN(CC1CC1)C(=O)COC(=O)c1ccc2c(c1)C(=O)N(c1ccc(OCC)cc1)C2=O | 109 | i | 0.99 | 2 | / | 50 | 98
N#Cc1ccccc1NC(=O)CSc1ccc([N+](=O)[O-])cn1 | 97 | i | 0.87 | -3 | / | / | /
Fc1cccc(Nc2nc(-c3ccncc3)nc3ccccc23)c1 | 104 | i | 0.86 | -7 | 1.7 | 19 | 140
Cc1cc(N/N=C(/CCC(=O)O)C(=O)O)nc2ccccc12 | 109 | i | 0.99 | -6 | -0.8 | 0 | 81
CC(C)CCOP(=O)(c1ccccc1)c1ccccc1 | 99 | i | 0.96 | 3 | 0.1 | -60 | 134
O=C(NCC1CCCO1)Nc1cc(Cl)cc(Cl)c1 (stereo not drawn) | 102 | i | 1 | -6 | / | / | /
Brc1ccc(-c2ncc3ccccn23)cc1 | 104 | i | 0.9 | / | / | / | /
COCCn1c(C)cc(C(=O)COc2nc3ccccc3nc2C)c1C | 104 | i | 1 | -24 | -0.6 | 43 | 57
COc1ccc(/C=N/Nc2ncnc3sc4c(c23)CCCC4)cc1OC | 107 | i | 0.75 | 4 | 0.1 | -17 | 44
CCC(C)(C)c1ccc(OCCCC[n+]2cccc(C)c2C)c(C(C)(C)CC)c1 | 88 | i | 0.66 | / | / | / | /
COc1cc(OC)cc(C(=O)NC(C)c2ccc(Br)cc2)c1 (stereo not drawn) | 96 | i | 0.86 | -7 | / | -12 | 108
CON1C(=O)C(=O)N(OC)C(C)(C)C1(C)C | 99 | i | 1.1 | -2 | -0.9 | / | /
CC1CN(S(=O)(=O)c2ccc(NC(=O)c3ccco3)cc2)CC(C)O1 (stereo not drawn) | 100 | i | 0.93 | -8 | 0.2 | 7 | 156
Cc1ccc(S(=O)(=O)N(CC(=O)N2CCOCC2)CC(=O)N2CCOCC2)cc1 | 102 | i | 1.1 | -1 | -1.5 | -69 | 113
CC(C)[C@H](NC(=O)NCCc1ccccc1)C(=O)O | 104 | i | 1 | 1 | -2.1 | 30 | 83
CN(C(=O)CSc1nc2c(c(=O)[nH]1)CCC2)c1ccccc1 | 99 | i | 0.93 | -6 | / | -18 | 126
COc1ccc(NC(=O)Cc2nc3ccccc3[nH]2)cc1 | 104 | i | 0.65 | -8 | -1.2 | -3 | 91
CCc1nc2ccccc2c(C(=O)O)c1C | 100 | i | 0.96 | 1 | -1.8 | -143 | 126
C=CCOc1ccccc1CNCCCN1CCOCC1 | 112 | i | 1.1 | -11 | -2.9 | 32 | 76
Cc1ccc(-c2nc(CS(=O)CC(=O)NCc3ccccn3)c(C)o2)cc1 (stereo not drawn) | 101 | i | 1 | -7 | -2.7 | / | /
COc1ccc(CC(=O)NNC(=O)c2cccs2)cc1 | 111 | i | 0.93 | -2 | -0.6 | 3 | 113
(cont.)
SMILES | RGS16-Gao HTS | HSV replic up | HSV replic up primary fold | PKD1 inh | GALR2 agonist | INS promoter inh | INS promoter inh cell count
CCCOC(=O)c1ccc(Nc2cc(C)nc3ncnn23)cc1 | 100 | i | 0.98 | -3 | -0.3 | / | /
COC(=O)c1ccc(CSc2nc3cc(Cl)ccc3s2)o1 | 106 | i | 0.97 | 1 | -1.6 | -3 | 203
S=c1[nH]nc(-c2cccc3ccccc23)n1-c1cccnc1 | 97 | i | 0.6 | / | / | / | /
COc1cc(S(=O)(=O)NCCCN2CCOCC2)ccc1Cl | 74 | i | 0.97 | 4 | -0.9 | 12 | 88
Cc1c(C(=O)NCc2ccccn2)oc2ccccc12 | 110 | i | 1 | -2 | -3.6 | 14 | 67
Cc1cc(NC(=O)c2cccc(S(=O)(=O)N3CCCCCC3)c2)n(-c2ccccn2)n1 | 99 | i | 0.81 | 5 | -2.8 | -9 | 71
CCCCC1OC23CCCCC2C(C#N)(C#N)C1(C#N)C(=N)O3 (stereo not drawn) | 105 | ? | / | -13 | 2.4 | 17 | 145

Profiles, quoted from the list:
`S=c1[nH]nc(-c2cccc3ccccc23)n1-c1cccnc1` across the screens: RGS16-Gao HTS: 97; HSV replic up: i; HSV replic up primary fold: 0.6; PKD1 inh: /; GALR2 agonist: /; INS promoter inh: /; INS promoter inh cell count: /
`COC(=O)c1ccc(CSc2nc3cc(Cl)ccc3s2)o1` across the screens: RGS16-Gao HTS: 106; HSV replic up: i; HSV replic up primary fold: 0.97; PKD1 inh: 1; GALR2 agonist: -1.6; INS promoter inh: -3; INS promoter inh cell count: 203
`Cc1c(C(=O)NCc2ccccn2)oc2ccccc12` across the screens: RGS16-Gao HTS: 110; HSV replic up: i; HSV replic up primary fold: 1; PKD1 inh: -2; GALR2 agonist: -3.6; INS promoter inh: 14; INS promoter inh cell count: 67

Bioassay records: PubChem BioAssay, several laboratories
